Compound activity deposited in PubChem BioAssay by National Center for Advancing Translational Sciences (NCATS).
TRPML1 agonist: agonists of human TRPML1 channel; Q9GZU1; TRPML1-expressing cells, Ca2+ dye fluorescence, FDSS; host cell line not named in the record; reference of the full effect not given here; activation, % (no concentration beside the values); 0.12% of 410,000 active; AID 624414; in the data active = activation above about 50%; inconclusive = about 30% to 50%; inactive = below about 30%; also: 0% is about no effect; the text of the record puts the active cut at 80%
Target sequence (Q9GZU1 whole entry, looked up): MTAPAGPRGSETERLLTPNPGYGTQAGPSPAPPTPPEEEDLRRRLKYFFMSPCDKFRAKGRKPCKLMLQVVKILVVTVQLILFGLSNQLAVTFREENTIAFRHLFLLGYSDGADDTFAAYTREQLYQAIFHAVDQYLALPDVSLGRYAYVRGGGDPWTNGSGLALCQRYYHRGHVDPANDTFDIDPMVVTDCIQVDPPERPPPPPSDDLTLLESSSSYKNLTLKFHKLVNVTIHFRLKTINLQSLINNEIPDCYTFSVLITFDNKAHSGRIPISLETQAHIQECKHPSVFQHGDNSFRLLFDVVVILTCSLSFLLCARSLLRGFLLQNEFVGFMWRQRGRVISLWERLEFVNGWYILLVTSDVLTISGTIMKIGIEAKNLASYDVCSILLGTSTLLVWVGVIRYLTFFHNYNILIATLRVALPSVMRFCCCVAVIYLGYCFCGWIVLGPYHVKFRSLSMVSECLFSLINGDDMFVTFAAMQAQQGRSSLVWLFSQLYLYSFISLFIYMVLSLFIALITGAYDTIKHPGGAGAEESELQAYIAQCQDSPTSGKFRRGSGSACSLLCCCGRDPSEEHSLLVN
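Tet-induced TRPML1-DL cells, 1,500 per well, cultured overnight, were loaded with a no-wash Ca2+ dye for 45–90 min. Calcium fluorescence was recorded on the FDSS for 110 s after compound addition, before the EC80 agonist (4 uM 54-4) was added.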
TRPML1 blocker: blocks the human TRPML1 channel. Q9GZU1. TRPML1-inducible cells, Ca2+ dye fluorescence, FDSS; hits give low values; inhibition of EC80 agonist-evoked calcium signal. activity change, negative = inhibition, % (concentration not given with the values). 0.02% of 390,000 active; in the data active means activity change below about -50%; inconclusive means about -30% to -50%; inactive means above about -30%;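 also: stimulus is agonist 54-4 at its EC80 concentration; % is scaled to controls: 0 for no effect and ±100 for the full control effect; compound concentration not given in the record; the text of the record puts the active cut at -80%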
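TRPML1-DL cells, Tet-induced overnight (~16 h, 37 °C) at 1,500 cells/well, were loaded with Ca8 no-wash dye plus quencher for 45-90 min at room temperature. Compounds were pinned during FDSS kinetic reading; agonist 54-4 at EC80 (4 uM final) then added.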
D2 ag: activates the human D2 dopamine receptor; P14416; DiscoveRx PathHunter D2 beta-arrestin, luminescence, 90 min; 100% = 57 uM dopamine signal; activation, % (no concentration beside the values); 0.084% of 360,000 active; in the data active = activation above about 40%; inconclusive = about 15% to 40%; inactive = below about 15%; also: compound concentration not given in the record; the text of the record calls up to 30% inactive
Target sequence (P14416 whole entry, looked up): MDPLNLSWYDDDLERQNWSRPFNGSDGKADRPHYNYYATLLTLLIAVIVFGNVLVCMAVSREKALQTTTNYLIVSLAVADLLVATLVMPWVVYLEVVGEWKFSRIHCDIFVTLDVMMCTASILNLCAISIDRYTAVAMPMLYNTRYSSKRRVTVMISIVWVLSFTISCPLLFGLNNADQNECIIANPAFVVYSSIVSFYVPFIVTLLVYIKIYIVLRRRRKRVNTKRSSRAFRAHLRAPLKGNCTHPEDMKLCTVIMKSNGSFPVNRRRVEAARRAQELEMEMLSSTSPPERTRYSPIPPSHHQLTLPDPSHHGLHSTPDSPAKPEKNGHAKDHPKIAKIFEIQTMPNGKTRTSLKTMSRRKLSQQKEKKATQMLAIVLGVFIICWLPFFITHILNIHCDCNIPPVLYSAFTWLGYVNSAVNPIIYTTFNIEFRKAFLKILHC
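Agonist mode: compounds alone added to overnight-plated D2 PathHunter cells for 90 min at 37 C, with 57 uM final dopamine (EC100) defining full response. Beta-arrestin recruitment detected by chemiluminescent reagent, read after 1 h at ambient temperature.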
D2 PAM: human D2 receptor positive allosteric modulation; P14416; DiscoveRx D2 beta-arrestin cells, luminescence, 90 min; 100% = 57 uM dopamine signal; potentiation, % (concentration not given with the values); 0.23% of 360,000 active; AID 624464; active = potentiation of 50% or more; inconclusive = 30% to 50%; inactive = 30% or less;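 also: compound concentration not given in the record; tested on top of an EC20 dose of dopamine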
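D2 cells co-treated with compound plus 50 nM dopamine (EC20) for 90 min at 37 deg C to detect potentiation. Beta-arrestin recruitment was read as enzyme-fragment luminescence after 1 h at ambient temperature. Full response was set by 57 uM dopamine.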
PINK1 modulator: PINK1 expression modulation. PINK1 immunofluorescence, high-content cytometry, 24 h. Potency, µM (top dose mostly 76.6 µM), for inactives: at the highest dose activation (PINK1 increase), actives largely listed as activators. 0.2% of 410,000 active; active = well fitted activation curve with a large enough effect; inconclusive = small, poorly fitted or top-dose-only effect; inactive = flat fitted curve, though single readings scatter; cell line not stated here;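 also: potency is read from the fitted curve at half-maximal effect; % of control where 0% means no effect; nearly all actives have a fitted effect of over 65% in size; a mitochondrial uncoupler was the plate control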
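Decision-based qHTS: stable cells, 24 h exposure to five compound concentrations, CCCP as control. Fixed cells stained for PINK1 plus nuclear, mitochondrial and cell markers, cytometer read.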
Six1-Eya2 blk: inhibitors of human Six1/Eya2 interaction; Q15475+O00167; AlphaScreen GST-Six1/His-Eya2 binding, biochemical; hits give low values; control for the full effect not named in the record; activity change, % (concentration not given with the values); 0.56% of 360,000 active; in the data active = activity change below about -65%; inconclusive = about -30% to -65%; inactive = above about -30%; also: % is scaled to controls: 0 for no effect and ±100 for the full control effect
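Six1/Eya2 binding was read as AlphaScreen signal after compounds were pinned into GST-Six1 plus His-tagged Eya2 (5X stock 250/500 nM) in pH 8.0 Tris/NaCl/TCEP buffer, beads added, then incubated 1 h, 37 C, dark.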
* hit, by the source's call; [ ] = dose if it differs, or a comment. Rows were taken by chance, and some 1% of all compounds hit somewhere here.

How did COc1cc(-c2cn[nH]c2N)cc(OC)c1OC do in these assays?
TRPML1 agonist: -0.4; TRPML1 blocker: -1; D2 ag: -1.2; D2 PAM: -6; PINK1 modulator: 13%[38.3 µM]; Six1-Eya2 blk: -1

Results for COc1cccc(/C=C/C(=O)OCC(=O)N2c3ccccc3CC2C)c1 (configuration not stated) ?
TRPML1 agonist: -0.7; TRPML1 blocker: -12; D2 ag: 0.3; D2 PAM: -7; PINK1 modulator: -0.8%; Six1-Eya2 blk: inconclusive

How did Cc1c(C(=O)Nc2ccc(F)cc2F)oc2ccc3c(c12)C(=O)CC(C)(C)O3 do in these assays?
TRPML1 agonist: 0.3; TRPML1 blocker: 11; PINK1 modulator: 8.1%

Results for COc1cccc(N2CCN(C(=O)Nc3ccccc3Cl)CC2)c1 ?
TRPML1 agonist: 0.1; TRPML1 blocker: -15; D2 ag: -1.5; D2 PAM: -6; PINK1 modulator: -0.8%; Six1-Eya2 blk: -6

Results for CCOc1ccccc1OCCCC(=O)N1CCN(S(=O)(=O)c2cc(F)ccc2F)CC1 ?
TRPML1 agonist: 5.6; TRPML1 blocker: 16; D2 ag: 4.6; D2 PAM: 1; PINK1 modulator: 1.3%; Six1-Eya2 blk: 2

What do the screens show for `Nc1ccc(Nc2nc(-c3ccncc3)cs2)cc1`?
TRPML1 agonist: 0.8; TRPML1 blocker: 19; D2 ag: 11; D2 PAM: 27; PINK1 modulator: 11%[38.3 µM]; Six1-Eya2 blk: -10

What do the screens show for `Clc1ccccc1/C=C/c1nc(-c2cccnc2)no1`?
D2 ag: -7.1; D2 PAM: 1; PINK1 modulator: -0.1%; Six1-Eya2 blk: -4

What do the screens show for `CC(=O)NC(Cc1c[nH]c2ccccc12)C(=O)OCC(=O)Nc1cc(C)on1` (configuration not stated)?
TRPML1 agonist: 1.4; TRPML1 blocker: -12; D2 ag: -2.8; D2 PAM: -21; PINK1 modulator: -0.6%; Six1-Eya2 blk: -7

Results for O=C(Cn1ncc2c3ccccc3n(Cc3cccc(Cl)c3)c2c1=O)NCc1ccccn1 ?
TRPML1 agonist: 0.4; TRPML1 blocker: 15; D2 ag: 3.8; D2 PAM: -4; PINK1 modulator: 1.9%; Six1-Eya2 blk: -12

What do the screens show for `COc1ccc(-n2nc3c(c2NC(=O)Cc2cccc(C)c2)CS(=O)C3)cc1` (configuration not stated)?
TRPML1 agonist: -0.7; TRPML1 blocker: 8; D2 ag: -1.2; D2 PAM: -1; PINK1 modulator: 1.4%; Six1-Eya2 blk: 3

What do the screens show for `CCn1c(CSCc2c(Cl)cccc2Cl)n[nH]c1=S`?
TRPML1 agonist: 2.5; TRPML1 blocker: -2; D2 ag: 8.8; D2 PAM: -12; PINK1 modulator: 0.9%; Six1-Eya2 blk: -4

How did C=C(C)COc1ccc(-c2nc(N)ncc2-c2ccc(Br)cc2)c(O)c1 do in these assays?
D2 ag: 11; D2 PAM: 7; PINK1 modulator: 4.6%; Six1-Eya2 blk: -3

What do the screens show for `Cc1cc(OCC(O)CN2CCCC2)ccc1C(C)C` (configuration not stated)?
TRPML1 agonist: -0.6; TRPML1 blocker: 12; D2 ag: 1.7; D2 PAM: -6; PINK1 modulator: -0.5%; Six1-Eya2 blk: 3

What do the screens show for `CNc1oc(C)nc1S(=O)(=O)c1ccccc1`?
TRPML1 agonist: 0.1; TRPML1 blocker: -3; D2 ag: -4.1; D2 PAM: 13; PINK1 modulator: -1.3%; Six1-Eya2 blk: 0

Results for Cc1ccc(NC(=O)Cn2nc(C)c3nn(-c4ccc(Cl)cc4)c(C)c3c2=O)cc1C ?
TRPML1 agonist: 0.4; TRPML1 blocker: -5; PINK1 modulator: -0.3%

How did CCOc1ccc(C(=O)Nc2ccc3c(c2)CCCN3S(=O)(=O)c2ccc(C)cc2)cc1 do in these assays?
TRPML1 agonist: -0.7; TRPML1 blocker: 43; PINK1 modulator: -0.1%

Results for COC(=O)[C@@H](Cc1c[nH]c2ccccc12)NC(=O)c1ccc2c(c1)OCO2 ?
TRPML1 agonist: 1.7; TRPML1 blocker: inconclusive; D2 ag: -5.7; D2 PAM: 1; PINK1 modulator: -2.1%; Six1-Eya2 blk: -3

What do the screens show for `Cc1nc2ccccc2c(C)c1CC(=O)OC(C)C(=O)NC1(C#N)CCCCC1` (configuration not stated)?
TRPML1 agonist: 1.0; TRPML1 blocker: 1; D2 ag: -1.4; D2 PAM: -13; PINK1 modulator: 2.4%; Six1-Eya2 blk: -3

Results for CCCCCCNC(=O)O[C@H]1CN(C(=O)OC(C)C)N(C(=O)OC(C)C)[C@@H]2CN(S(=O)(=O)c3ccc(C)cc3)C[C@]12O ?
TRPML1 agonist: -0.5; TRPML1 blocker: 3; D2 ag: -8.5; D2 PAM: 2; PINK1 modulator: inconclusive; Six1-Eya2 blk: 5

Results for COC(=O)c1c(NC(=O)c2ccn(C)n2)sc2c1CCC2 ?
TRPML1 agonist: 1.0; TRPML1 blocker: -7; D2 ag: 4.5; D2 PAM: -1; PINK1 modulator: 6.2%; Six1-Eya2 blk: 1

How did CCCCNC(=O)NCC(=O)Nc1ccc(F)c(F)c1 do in these assays?
TRPML1 agonist: -1.1; TRPML1 blocker: -14; D2 ag: 0.0; D2 PAM: -4; PINK1 modulator: 0.3%; Six1-Eya2 blk: 3

Results for COc1ccc(NC(=O)CN(c2ccc(OC)cc2)S(=O)(=O)c2c(C)nn(C)c2C)cc1 ?
TRPML1 agonist: -0.2; TRPML1 blocker: -5; D2 ag: -4.5; D2 PAM: -13; PINK1 modulator: -0.7%; Six1-Eya2 blk: 1

Results for Nc1nc2ccccc2n1S(=O)(=O)c1ccc([N+](=O)[O-])cc1 ?
TRPML1 agonist: 0.8; TRPML1 blocker: -29; D2 ag: inconclusive; D2 PAM: 24; PINK1 modulator: 5.2%; Six1-Eya2 blk: 12

How did COc1ccc(-c2cc(C)no2)cc1S(=O)(=O)N1CCCCC1 do in these assays?
TRPML1 agonist: 2.7; TRPML1 blocker: 3; D2 ag: 2.7; D2 PAM: -5; PINK1 modulator: 0.1%; Six1-Eya2 blk: -2

How did S=C(NC1CCCCC1)N1CCn2cccc2C1c1ccncc1 (configuration not stated) do in these assays?
TRPML1 agonist: -0.6; TRPML1 blocker: 24; D2 ag: -10; D2 PAM: -2; PINK1 modulator: -1.0%; Six1-Eya2 blk: -5

Results for O=C(c1cccs1)N1CCCC(c2nc3c(nnn3Cc3ccccc3)c(=O)[nH]2)C1 (configuration not stated) ?
TRPML1 agonist: 0.9; TRPML1 blocker: 30; D2 ag: -1.2; D2 PAM: 0; PINK1 modulator: 3.3%; Six1-Eya2 blk: -4

How did CC(=O)NCCn1c(C)cc2ccccc21 do in these assays?
TRPML1 agonist: 6.8; TRPML1 blocker: -8; D2 ag: -2.4; D2 PAM: -8; PINK1 modulator: -1.5%; Six1-Eya2 blk: -1

Results for C[C@H](O)[C@@H]1C(=O)N2CCc3ccc(-c4ccccc4)cc3[C@@H]2C[C@@H]1N(C)C(=O)Nc1cc(Cl)cc(Cl)c1 ?
TRPML1 agonist: -0.1; TRPML1 blocker: -1; D2 ag: -0.1; PINK1 modulator: -0.3%; Six1-Eya2 blk: -11

Results for COC(=O)c1ccc(C)c(NC(=O)COC(=O)C2CC3CCCC(C2)C3=O)c1 (configuration not stated) ?
TRPML1 agonist: 0.3; TRPML1 blocker: 62; D2 ag: -1.4; D2 PAM: 16; PINK1 modulator: 2.5%; Six1-Eya2 blk: 0

How did CCOC(=O)CNC(c1ccccc1)c1cc(Br)ccc1NC(C)=O (configuration not stated) do in these assays?
TRPML1 agonist: -0.1; TRPML1 blocker: -7; D2 ag: 0.3; D2 PAM: -10; PINK1 modulator: -0.4%; Six1-Eya2 blk: -8

What do the screens show for `Cc1cc(C(=O)Nc2ccc(S(=O)(=O)Nc3nccs3)cc2)c(C)o1`?
TRPML1 agonist: 0.4; TRPML1 blocker: 26; D2 ag: -2.8; D2 PAM: -13; PINK1 modulator: 1.0%[38.3 µM]; Six1-Eya2 blk: inconclusive

How did O=C(Nc1ccc(Cl)cn1)c1cc2ccccc2o1 do in these assays?
TRPML1 agonist: -0.3; TRPML1 blocker: 11; D2 ag: -2.9; D2 PAM: -36; PINK1 modulator: 1.4%; Six1-Eya2 blk: 32

How did CC(=S)/C=C1\Sc2ccccc2N1C do in these assays?
TRPML1 agonist: 0.1; TRPML1 blocker: -8; D2 ag: -5.8; D2 PAM: -24; PINK1 modulator: 4.2%[38.3 µM]; Six1-Eya2 blk: -18

Results for O=C(CCCc1ccccc1)Nc1ccc2c(c1)OCCO2 ?
TRPML1 agonist: 0.2; TRPML1 blocker: -8; D2 ag: -3.4; D2 PAM: -14; PINK1 modulator: 1.8%; Six1-Eya2 blk: 2

What do the screens show for `Cc1ccc([N+](=O)[O-])cc1-c1ccc(/C=C(\C#N)c2[nH]nc(N)c2C#N)o1`?
TRPML1 agonist: 1.4; TRPML1 blocker: 10; D2 ag: -2.3; D2 PAM: -15; PINK1 modulator: -0.6%; Six1-Eya2 blk: inconclusive

How did C#Cc1ccc([C@@H]2C=C(C(=O)N3CCOCC3)O[C@H](OCC)[C@H]2CCCO)cc1 do in these assays?
TRPML1 agonist: 0.2; TRPML1 blocker: -1; D2 ag: 0.1; D2 PAM: -1; PINK1 modulator: -0.2%; Six1-Eya2 blk: -4

How did COc1ccc(/C=N/Nc2nc(C)nc(N)n2)cc1 do in these assays?
TRPML1 agonist: -0.7; TRPML1 blocker: 4; D2 ag: 2.0; D2 PAM: -4; PINK1 modulator: 0.4%; Six1-Eya2 blk: -1

What do the screens show for `COCCNC(=O)C1(C)CCCN(C(=O)c2ccccc2)C1` (configuration not stated)?
TRPML1 agonist: 0.1; D2 ag: -6.5; D2 PAM: 1; PINK1 modulator: 0.3%; Six1-Eya2 blk: 10

Compounds above that contain bromine, in the order listed:
How did C=C(C)COc1ccc(-c2nc(N)ncc2-c2ccc(Br)cc2)c(O)c1 do in these assays?
D2 ag: 11; D2 PAM: 7; PINK1 modulator: 4.6%; Six1-Eya2 blk: -3

How did CCOC(=O)CNC(c1ccccc1)c1cc(Br)ccc1NC(C)=O (configuration not stated) do in these assays?
TRPML1 agonist: -0.1; TRPML1 blocker: -7; D2 ag: 0.3; D2 PAM: -10; PINK1 modulator: -0.4%; Six1-Eya2 blk: -8

By substructure, the compounds so far with a thiophene ring, fused or not
Results for COC(=O)c1c(NC(=O)c2ccn(C)n2)sc2c1CCC2 ?
TRPML1 agonist: 1.0; TRPML1 blocker: -7; D2 ag: 4.5; D2 PAM: -1; PINK1 modulator: 6.2%; Six1-Eya2 blk: 1

Results for O=C(c1cccs1)N1CCCC(c2nc3c(nnn3Cc3ccccc3)c(=O)[nH]2)C1 (configuration not stated) ?
TRPML1 agonist: 0.9; TRPML1 blocker: 30; D2 ag: -1.2; D2 PAM: 0; PINK1 modulator: 3.3%; Six1-Eya2 blk: -4
